Assay outcomes: PubChem, National Center for Advancing Translational Sciences (NCATS)
TRPML1 blocker: qHTS for Inhibitors of the Human Mucolipin Transient Receptor Potential 1 (TRPML1); activity change, negative = inhibition, % (test concentration not listed); TRPML1-inducible cells, Ca2+ dye fluorescence, FDSS; stronger effect = lower value; inhibition of EC80 agonist-evoked calcium signal; 0.02% of 390,000 active; Mucolipin-1 (Homo sapiens), Q9GZU1; in the data active means activity change below about -50%; inconclusive means about -30% to -50%; inactive means above about -30%;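 further: stimulus is agonist 54-4 at its EC80 concentration; on the % scale 0 is the no-effect control and ±100 the full control effect; compound concentration not given in the record; the text of the record puts the active cut at -80%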
Target sequence (Q9GZU1 whole entry, looked up): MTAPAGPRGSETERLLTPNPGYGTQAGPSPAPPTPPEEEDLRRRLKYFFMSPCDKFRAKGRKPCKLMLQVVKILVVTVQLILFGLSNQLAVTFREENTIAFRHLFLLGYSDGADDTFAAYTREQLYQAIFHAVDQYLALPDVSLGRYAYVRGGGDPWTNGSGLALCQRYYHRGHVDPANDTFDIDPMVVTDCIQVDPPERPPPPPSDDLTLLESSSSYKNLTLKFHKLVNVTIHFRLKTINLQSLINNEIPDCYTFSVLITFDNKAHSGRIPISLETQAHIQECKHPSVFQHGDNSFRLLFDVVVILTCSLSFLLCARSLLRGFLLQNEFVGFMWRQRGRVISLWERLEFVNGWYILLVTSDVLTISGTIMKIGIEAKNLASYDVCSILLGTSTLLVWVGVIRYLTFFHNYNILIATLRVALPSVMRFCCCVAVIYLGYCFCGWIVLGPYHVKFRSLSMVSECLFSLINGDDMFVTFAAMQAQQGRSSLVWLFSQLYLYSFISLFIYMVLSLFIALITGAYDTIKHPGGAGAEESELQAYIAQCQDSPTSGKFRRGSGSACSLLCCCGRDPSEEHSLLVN
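Tet-induced TRPML1-DL cells loaded with Ca8 no-wash calcium dye were read kinetically on FDSS. Compound addition was followed by EC80 agonist 54-4 (4 uM final); inhibition was read over 110 s.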
D2 agonist: Beta-Arrestin HTS for Positive Allosteric Modulators of the Human D2 Dopamine Receptor: Agonists. D(2) dopamine receptor (Homo sapiens), P14416. DiscoveRx PathHunter D2 beta-arrestin, luminescence, 90 min; 100% = 57 uM dopamine signal. activation, % (no concentration beside the values). 0.084% of 360,000 active. AID 624465, 2012; in the data active = activation above about 40%; inconclusive = about 15% to 40%; inactive = below about 15%; further: compound concentration not given in the record; the text of the record calls up to 30% inactive
Target sequence (P14416 whole entry, looked up): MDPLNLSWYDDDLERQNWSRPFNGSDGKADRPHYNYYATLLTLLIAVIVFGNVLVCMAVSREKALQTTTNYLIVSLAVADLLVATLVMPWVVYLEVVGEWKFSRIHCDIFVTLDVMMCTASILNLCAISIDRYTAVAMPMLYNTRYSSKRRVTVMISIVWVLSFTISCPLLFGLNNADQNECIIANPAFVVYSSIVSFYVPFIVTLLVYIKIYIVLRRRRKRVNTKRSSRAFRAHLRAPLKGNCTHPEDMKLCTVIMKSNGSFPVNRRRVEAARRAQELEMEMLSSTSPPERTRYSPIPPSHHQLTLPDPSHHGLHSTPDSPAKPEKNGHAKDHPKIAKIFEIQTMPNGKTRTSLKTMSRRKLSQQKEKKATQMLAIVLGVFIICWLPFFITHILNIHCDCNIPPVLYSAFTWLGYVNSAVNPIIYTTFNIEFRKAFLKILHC
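DiscoveRx PathHunter D2 beta-arrestin cells (2,100/well) attached overnight, then compound-stimulated 90 min at 37 C in HBSS/10 mM HEPES/0.1% Tween-20 buffer; beta-galactosidase complementation read by luminescence after 1 h at ambient temperature. Dopamine 57 uM final (EC100) as control.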
Six1-Eya2 blk: qHTS Assay for Inhibitors of the Six1/Eya2 Interaction. Homeobox protein SIX1 (Homo sapiens) + Protein phosphatase EYA2 (Homo sapiens), …. AlphaScreen GST-Six1/His-Eya2 binding, biochemical; stronger effect = lower value; control for the full effect not named in the record. activity change, % (test concentration not listed). 0.56% of 360,000 active; in the data active = activity change below about -65%; inconclusive = about -30% to -65%; inactive = above about -30%; further: on the % scale 0 is the no-effect control and ±100 the full control effect; compound concentration not given in the record
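AlphaScreen with GST-Six1 and His-Eya2 (5X mix: 250 nM and 500 nM), glutathione donor and nickel acceptor beads; buffer 50 mM Tris pH 8.0, 300 mM NaCl, 1 mM TCEP; 1 h at 37 C in the dark.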
CtBP-E1A inh: qHTS Assay for Inhibitors of the CtBP/E1A Interaction | AlphaScreen GST-E1A/His-CtBP binding, 1536-well; stronger effect = lower value; control for the full effect not named in the record | activity change, % (no concentration beside the values) | 0.49% of 340,000 active | AID 651724, 2012; in the data active means activity change below about -65%; inconclusive means about -30% to -65%; inactive means above about -30%; further: on the % scale 0 is the no-effect control and ±100 the full control effect; compound concentration not given in the record
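Steps: dispense buffer (Tris pH 8.0, NaCl 300 mM, TCEP 1 mM, BSA, Tween 20); add 5X protein mix (GST-E1A, His-CtBP, 125 nM each); pin 23 nL compound; 2 h at 37 °C, dark; add 5X beads (50 ug/mL); 1 h; read.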
TRPML1 ag: qHTS for Agonists of the Human Mucolipin Transient Receptor Potential 1 (TRPML1); Mucolipin-1 (Homo sapiens), Q9GZU1; TRPML1-expressing cells, Ca2+ dye fluorescence, FDSS; host cell line not named in the record; reference of the full effect not given here; activation, % (concentration not given with the values); 0.12% of 410,000 active; in the data active = activation above about 50%; inconclusive = about 30% to 50%; inactive = below about 30%; further: 0% is about no effect; the text of the record puts the active cut at 80%
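Agonist activity was taken from a 110 s kinetic Ca2+ dye read on the FDSS after pinning compounds onto TRPML1-DL cells. The cells were seeded at 1,500/well with Tet inducer, incubated about 16 h, then dye-loaded at room temperature.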
PINK1 expr mod: A Quantitative High throughput Screen to Identify Chemical Modulators of PINK1 Expression; PINK1 immunofluorescence, high-content cytometry, 24 h; Potency, µM (highest dose often 76.6 µM), for the others: at the highest dose activation (PINK1 increase), usual class: activators; 0.2% of 410,000 active; AID 624263, 2012; active = well fitted activation curve with a large enough effect; inconclusive = small, poorly fitted or top-dose-only effect; inactive = flat fitted curve, though single readings scatter; cell line not stated here;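 further: potency means the concentration at half of the fitted maximal effect; % of control where 0% means no effect; nearly all actives have a fitted effect of over 65% in size; a mitochondrial uncoupler was the plate control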
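Readout is PINK1 immunofluorescence, quantified alongside mitochondrial, cell and nuclear markers by laser-scanning microplate cytometry. Cells from a stable line were exposed to compound titrations (5 concentrations) for 24 hours, with CCCP controls.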
* = called active by the depositor; u = inconclusive; x = no result given; [ ] = dose if it differs, or a comment.

SMILES	TRPML1 blocker	D2 agonist	Six1-Eya2 blk	CtBP-E1A inh	TRPML1 ag	PINK1 expr mod
COc1cc(OC)cc(-c2c(C#Cc3ccsc3)c3cc(-c4ccc5c(c4)OCCO5)ccc3n2C)c1	12	-2.7	0	-2	-0.2	0.0%
CCOC(=O)c1cc(C)nc(SC)c1C#N	-6	4.4	9	7	4.8	0.5%
CC(=O)NC(c1ccc(F)c(F)c1)c1nc(-c2ccncc2)cs1 (stereo not given)	x	6.2	-9	-24	-0.4	1.2%
C=CCn1c(=O)n(CCOC)c(=O)c2sc3ccccc3c21	-14	-5.8	2	0	-0.3	1.7%
O=C(c1noc2c1CCCC2)N1CCc2c([nH]c3ccccc23)C1c1ccccn1 (stereo not given)	-6	-4.7	-13	-2	-0.2	-0.5%
COc1ccccc1NS(=O)(=O)c1ccc(C(=O)NCC(c2ccco2)N(C)C)cc1 (stereo not given)	13	-0.7	0	-3	0.8	0.3%
O=C(c1ccc(OC2CCN(Cc3ccccc3O)CC2)cc1)N1CCCCC1	2	-1.8	2	12	0.3	0.0%
c1cncc(-c2ccc3[nH]ccc3c2)c1	3	-3.7	4	5	-0.5	1.7%
C=CCn1c(NCc2ccc(N(C)C)cc2)nc2ccccc21	-6	-1.3	-22	-20	0.0	0.1%
Cc1ccc(-n2c(Cc3cccs3)nnc2SCC(N)=O)cc1	1	-3.2	6	3	0.1	-0.7%[38.3 µM]
C/C(CC(=O)Nc1ccc(OCc2ccccc2)cc1)=N\NC(=O)C(=O)Nc1cccc(C)c1	-7	3.9	4	-15	0.2	1.8%
CCCOc1cc(C)c(S(=O)(=O)NC2CC(C)(C)NC(C)(C)C2)cc1C	17	-1.1	0	-1	1.3	5.0%

An excerpt from above in order of number of heavy atoms, rising:
SMILES	TRPML1 blocker	D2 agonist	Six1-Eya2 blk	CtBP-E1A inh	TRPML1 ag	PINK1 expr mod
CCOC(=O)c1cc(C)nc(SC)c1C#N	-6	4.4	9	7	4.8	0.5%
Cc1ccc(-n2c(Cc3cccs3)nnc2SCC(N)=O)cc1	1	-3.2	6	3	0.1	-0.7%[38.3 µM]
CCCOc1cc(C)c(S(=O)(=O)NC2CC(C)(C)NC(C)(C)C2)cc1C	17	-1.1	0	-1	1.3	5.0%
O=C(c1ccc(OC2CCN(Cc3ccccc3O)CC2)cc1)N1CCCCC1	2	-1.8	2	12	0.3	0.0%
COc1ccccc1NS(=O)(=O)c1ccc(C(=O)NCC(c2ccco2)N(C)C)cc1 (stereo not given)	13	-0.7	0	-3	0.8	0.3%
COc1cc(OC)cc(-c2c(C#Cc3ccsc3)c3cc(-c4ccc5c(c4)OCCO5)ccc3n2C)c1	12	-2.7	0	-2	-0.2	0.0%

Next part
SMILES	TRPML1 blocker	D2 agonist	Six1-Eya2 blk	CtBP-E1A inh	TRPML1 ag	PINK1 expr mod
CC(=O)c1ccc(N2C(=O)N(Cc3ccc(F)cc3)c3ccccc3S2(=O)=O)cc1	21	x	x	x	0.0	3.7%
CC(C)(C)S(=O)N1Cc2cc(C(=O)N3CCOCC3)nc(-c3cccc(Br)c3)c2[C@H]1CCO (stereo not given in full)	-7	2.0	-4	1	0.5	5.3%
CN(CC(=O)Nc1cccc(F)c1)C(=O)c1cccc(S(=O)(=O)N2CCN(Cc3ccccc3)CC2)c1	0	0.7	-8	-3	0.0	1.5%
CC(C)c1ccc(S(=O)(=O)Nc2ccc(-n3cnnn3)cc2)cc1	26	3.6	4	-20	12	8.8%
O=C(O)c1ccccc1/C=N/NC(=O)C1CCCC1	25	-4.9	14	-4	0.0	-1.1%
CCCCOc1ccc(SCCCN2CCOCC2)cc1	12	2.0	-4	1	0.2	12%
Cc1ccc2[nH]cc(S(=O)(=O)c3ccc(F)cc3)c(=O)c2c1	5	3.0	18	-13	0.5	-0.3%
O=C(c1cccc(S(=O)(=O)N2CCOCC2)c1)N1CCN(c2ccccc2)CC1	27	0.3	-1	-3	2.6	1.5%
Cc1cc(F)cc(-c2cc(C(=O)NCc3ccccc3)[nH]n2)c1	x	-2.0	-2	2	-1.1	7.8%
CN(c1ccc(OCC(=O)N2CCCCC2)cc1)S(=O)(=O)c1cccs1	-5	-3.8	4	7	0.8	1.1%
CCc1cccc(CC)c1NC(=O)COC(=O)c1cccc(-c2ccc(OC(C)=O)cc2)c1	14	-3.2	6	2	-0.6	1.5%
Cc1cccc(N2CC(C(=O)Nc3ccccc3N3CCCC3)CC2=O)c1C (stereo not given)	-1	-1.3	-5	2	-1.2	0.4%
NC(=O)c1c(N)sc(=S)n1CC1CCCO1 (stereo not given)	10	-1.1	0	-1	-0.1	0.1%
O=c1c2c3c(sc2n2c(=S)[nH]nc2n1-c1ccccc1)CCC3	-12	-1.0	0	-2	0.3	-0.4%
CC(=O)c1ccc(NC(=O)CSc2nnc(NC(=O)C3CC3)s2)cc1	30	-3.3	2	-1	0.8	9.5%
Cc1ccc(CN2CCN(/N=C/c3ccc(O)c(O)c3)CC2)cc1	21	3.3	-26	-2	2.0	-1.9%
Cn1c(=O)c2c(ncn2CC(=O)Nc2ccc(N3CCOCC3)cc2)n(C)c1=O	-1	-4.4	-2	-3	0.8	3.2%
O=c1cc[nH]c2c(C(F)(F)F)cccc12	-5	-1.7	-12	-2	-0.2	-0.6%
CCOc1ccccc1NC(=O)Nc1ccsc1C(=O)OC	58	1.1	-12	0	1.6	-1.3%
CCCCCn1c(S(=O)(=O)O)nc2ccccc21	10	0.2	5	11	-0.8	-1.1%
CCOC(=O)c1sc2nc(SCC#N)n(CC3CCCO3)c(=O)c2c1C (stereo not given)	-7	-1.3	-1	2	0.2	-2.6%[38.3 µM]
Cn1c(C(=O)NCCCN2CCN(c3ccc(F)cc3)CC2)cc2c(=O)n(C)c3ccccc3c21	2	-3.4	4	-3	0.7	1.6%
CCN(CC)S(=O)(=O)c1ccc(/C=C/C(=O)N(c2ccccn2)C2CCCCC2)cc1	-15	-0.1	-25	-3	0.8	3.8%
CCOc1ccc(-c2nnn(CC(=O)c3cc(OC)ccc3OC)n2)cc1	10	0.7	15	-5	0.7	6.1%

As entered above.
O=c1c2c3c(sc2n2c(=S)[nH]nc2n1-c1ccccc1)CCC3 in TRPML1 blocker = -12
O=c1cc[nH]c2c(C(F)(F)F)cccc12 in CtBP-E1A inh = -2

Following part
SMILES	TRPML1 blocker	D2 agonist	Six1-Eya2 blk	CtBP-E1A inh	TRPML1 ag	PINK1 expr mod
Cc1nn(Cc2ccc(C(=O)O)o2)c(C)c1[N+](=O)[O-]	11	-1.9	0	0	0.1	0.6%
CC(C)C[C@@H](COCc1cccc(C(F)(F)F)c1)N1CCN(C(=O)c2ccc(C(F)(F)F)cc2)CCC1=O	x	x	2	5	2.7	1.0%
CC(C)(C)NC(=O)CN(Cc1ccc(F)cc1)C(=O)Cn1nnc(-c2ccc(F)cc2)n1	-4	1.4	4	x	0.9	-0.9%
O=C(NCc1ccccc1)NC1COc2ccccc2C1 (stereo not given)	-7	x	x	x	0.9	0.9%
CCC(Sc1nc2ccccc2c2nc(CCc3c(C)n[nH]c3C)nn12)C(=O)Nc1ccc(F)cc1 (stereo not given)	-11	x	x	x	-0.2	1.5%
O=C1c2cccc([N+](=O)[O-])c2C(=O)N1C1CCCCC1	19	2.7	-6	3	1.0	-0.3%
COc1ccccc1NC(=O)c1ccc(NS(=O)(=O)c2ccc(F)c(Cl)c2)cc1	18	3.9	5	1	4.0	0.2%
O=C(CSc1nc2ccccc2nc1SCC(=O)N1CCCCC1)N1CCCCC1	-2	0.2	-3	15	-0.2	-2.8%[38.3 µM]
Cc1ccc(-c2cc3nc(-c4ccccc4)cc(N4CCOCC4)n3n2)cc1	17	-2.2	16	6	0.6	6.4%
O=C(CCN1CCc2ccccc21)c1ccc2c(c1)OCCO2	25	2.1	-9	-7	-0.9	13%
Cc1nn(C)cc1CNC(=O)c1ccc(Br)o1	-11	-2.4	2	0	0.4	3.6%[38.3 µM]
CCOC(=O)c1c(N)sc(C(=O)N(C)C)c1CN1CCOCC1	22	-1.0	2	6	1.1	14%[38.3 µM]
C=CCc1c(C)nc2c(-c3ccccc3)cnn2c1N1CCOCC1	-7	1.6	16	11	-0.5	0.5%
COc1ccc(-n2c(=O)[nH]cc(C(=O)Nc3ccccc3)c2=O)cc1	-17	2.5	4	-22	-0.8	-0.4%
CCn1c2ccccc2c2cc(/C=N/n3cnnc3)ccc21	5	3.1	1	-9	0.6	x
C/C(Cl)=C\Cn1c(N2CCCCCC2)nc2c1c(=O)n(C)c(=O)n2C	5	-1.8	0	-7	1.1	-0.8%
COc1cccc(N2CC(C(=O)Nc3nnc(SCC(=O)NC4CCCC4)s3)CC2=O)c1 (stereo not given)	-5	-5.4	u	9	1.2	2.1%
CCOC(=O)c1c(-c2ccc(C)cc2)csc1NC(=O)c1cc(=O)c2cc(C)ccc2o1	-2	x	x	x	1.1	-0.2%
C=C(C)CSc1nc2ccccc2c(=O)n1-c1c(C)n(C)n(-c2ccccc2)c1=O	4	-0.5	-2	12	-0.3	1.4%
CC(=O)Nc1ccc(N/C=C/C(=O)c2ccco2)cc1	18	-2.6	4	-1	0.2	-2.1%
CCCc1nc2ccccc2c(C(=O)OCC(=O)N2CCc3ccccc32)c1CC	20	-4.8	-4	-3	0.7	4.1%
CCOCCCN(Cc1ccco1)S(=O)(=O)c1cc2c(cc1C)NC(=O)CO2	-25	x	x	x	0.7	-1.4%
O=C(CN1CCCCC1)N1CCN(S(=O)(=O)c2ccccc2)C1	8	1.4	5	5	1.4	-2.0%
Cc1sc2ncn(CC(=O)N3CCC(C(N)=O)CC3)c(=O)c2c1S(=O)(=O)N1CC(C)CC(C)C1 (stereo not given)	-13	1.5	-18	4	-0.3	1.8%
CC(C)(C)OC(=O)NCc1ccc(CNC(=O)c2[nH]cnc2C(=O)N[C@@H](Cc2ccccc2)C(=O)OCc2ccccc2)cc1	-24	-2.7	-11	-7	1.3	0.2%
CCOc1ccc(NC(=O)CCNC(=O)C2CCN(S(=O)(=O)c3ccccc3)CC2)cc1	4	-1.1	1	-3	-0.9	-0.3%
CCOc1ccc(Nc2ccc3nonc3c2[N+](=O)[O-])cc1	10	-2.4	1	-6	1.7	-3.0%
Cn1c2ccccc2c2cc(C(=O)OCC(=O)N3CC(=O)Nc4ccccc43)sc21	-15	1.3	17	0	0.9	6.1%
COc1cc(C(=O)OCC(=O)N(C)Cc2ccccc2)cc(OC)c1OC	-2	1.2	-1	3	-0.7	0.0%
